GALR2 ag: activates the human galanin receptor 2; O43603; GALR2-expressing cells, agonist activation read-out; activation, %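 (tested at 5 µM)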; 140,000 compounds, 0.48% hits; AID 803;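 active = above mean plus 3 SD of all compounds, about 5% in these data, not always enough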;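 also: 0% = vehicle buffer wells and 100% = reference agonist at full effect; tested in CHO reporter cells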
Target sequence (O43603 whole entry, looked up): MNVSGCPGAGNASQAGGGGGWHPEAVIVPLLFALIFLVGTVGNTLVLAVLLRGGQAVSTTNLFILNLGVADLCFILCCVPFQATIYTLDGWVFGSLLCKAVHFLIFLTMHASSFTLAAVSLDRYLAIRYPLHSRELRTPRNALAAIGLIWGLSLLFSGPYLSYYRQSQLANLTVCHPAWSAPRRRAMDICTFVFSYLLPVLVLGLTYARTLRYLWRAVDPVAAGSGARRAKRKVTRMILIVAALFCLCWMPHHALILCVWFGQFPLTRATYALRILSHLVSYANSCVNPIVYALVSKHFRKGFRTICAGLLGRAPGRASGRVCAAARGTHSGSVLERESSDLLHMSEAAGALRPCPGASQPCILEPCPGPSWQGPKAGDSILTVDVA
RGS16-Gao HTS: RGS16-Galphao interaction regulator (human); O15492+P09471; bead-based flow cytometry RGS16-Galphao binding, fluorescence; actives lie on both sides; binding response (% of control), % at 10 µM; 220,000 compounds, 0.38% hits;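 active = below 25% or above 175%, edge rows of some plates excepted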;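 also: Galphao activated by GDP with aluminum fluoride before binding; 100% = wells without compound and 0% = beads without RGS; some results beyond the cut were filed as inactive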
Target sequence (O15492 whole entry, looked up): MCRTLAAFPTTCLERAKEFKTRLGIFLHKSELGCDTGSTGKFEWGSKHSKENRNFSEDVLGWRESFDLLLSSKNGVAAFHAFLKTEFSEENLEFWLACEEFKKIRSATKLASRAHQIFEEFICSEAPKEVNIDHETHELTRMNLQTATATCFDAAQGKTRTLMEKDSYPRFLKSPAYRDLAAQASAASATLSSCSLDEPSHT
Target sequence (P09471 whole entry, looked up): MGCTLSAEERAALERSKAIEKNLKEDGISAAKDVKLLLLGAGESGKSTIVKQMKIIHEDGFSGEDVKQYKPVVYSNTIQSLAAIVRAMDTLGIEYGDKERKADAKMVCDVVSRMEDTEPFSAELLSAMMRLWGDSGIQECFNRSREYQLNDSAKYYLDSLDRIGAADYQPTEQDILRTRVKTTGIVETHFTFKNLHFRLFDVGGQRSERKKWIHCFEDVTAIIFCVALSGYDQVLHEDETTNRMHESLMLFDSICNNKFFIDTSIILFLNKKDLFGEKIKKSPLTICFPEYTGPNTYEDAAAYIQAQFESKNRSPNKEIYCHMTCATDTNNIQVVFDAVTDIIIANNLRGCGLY
PKD1 inh: PKD1 (human) kinase inhibition | Q15139 | PKD1 kinase fluorescence polarization assay | inhibition, %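 (about 10 µM by stock and volumes)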 | 200,000 compounds, 0.056% hits | AID 797;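 active = inhibition of 50% or more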;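 also: controls were vehicle for no effect and a reference inhibitor for full effect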
HSV replic up: increases HSV replication in cells; 220,000 compounds, 0.005% hits; HSV replication augmentation in cells, fold increase; maximum fold increase;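 active = peak rise of 1.5-fold or more in the series; inconclusive = self-fluorescent or not available for retest; tested in PC3 cells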;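 also: first round at 10 µM; read as green reporter fluorescence; hits show the peak of a series up to 25 µM; 1 = signal of infected wells without compound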
Insulin prom inh: TRM-6 insulin promoter activity inhibition. AID 1273. 130,000 compounds, 0.9% hits. TRM-6 cells (human fetal islet line), insulin promoter-eGFP reporter, imaging; reporter expression induced with tamoxifen. inhibition, % at 2 µM;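 active = inhibition above the mean plus 3 SD, with well images judged a real hit on visual review, cut at about 60% in these data, passing the limit was not always enough; inconclusive = inhibition over the cutoff but images rejected on review; inactive = inhibition not above the cutoff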
Insulin prom inh cell count: also measured in Insulin prom inh; calls as there; normalized cell count, %; measured here: cell count, toxicity; reference of the scale not given here;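 cells exposed to compound for 48 h; stained nuclei by imaging scaled within each plate; lower means fewer cells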
HSV replic up primary fold: also measured in HSV replic up; calls as there; fold increase; compound at 10 µM; measured here: primary screen fold increase 10 uM; tested in PC3 cells;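 GFP signal in the first replicate; 1 = infected wells without compound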
Numbers without * were called inactive; i = inactive; u = inconclusive; x = no result given; [ ] = remark or other dose.

Preview:
molecule	GALR2 ag	RGS16-Gao HTS	PKD1 inh	HSV replic up	HSV replic up primary fold	Insulin prom inh	Insulin prom inh cell count
CN1CCN(C(=O)CCc2nc3ccccc3n2-c2ccccc2)CC1	-0.8	99	9	i	0.97	-33	136
CCOC(=O)Cc1nnc(NC(=O)CSc2nnc3c4ccccc4n(C)c3n2)s1	-1.1	101	-11	i	0.9	x	x

All compounds of this part, from the first entry:
molecule	GALR2 ag	RGS16-Gao HTS	PKD1 inh	HSV replic up	HSV replic up primary fold	Insulin prom inh	Insulin prom inh cell count
CN1CCN(C(=O)CCc2nc3ccccc3n2-c2ccccc2)CC1	-0.8	99	9	i	0.97	-33	136
CCOC(=O)Cc1nnc(NC(=O)CSc2nnc3c4ccccc4n(C)c3n2)s1	-1.1	101	-11	i	0.9	x	x
COc1ccc(OC)c(C2C3CN(C(C)C)CC=C3C(C#N)=C(N)C2(C#N)C#N)c1 (stereo not drawn)	1.1	98	0	u	x	-479	176
O=C(CC1NCCN(Cc2ccccc2)C1=O)Nc1ccc(Cl)cc1 (stereo not drawn)	x	105	x	i	1.2	x	x
O=C(NCc1ccco1)C(c1ccc(F)cc1)N(C(=O)Cc1cccs1)c1cccnc1 (stereo not drawn)	x	101	-6	i	0.95	-74	130
Cc1ccc(CN2CCN(/N=C/c3cccnc3)CC2)cc1	0.1	260*[activator]	-8	i	0.99	x	x
CCn1c(CSc2nc(C)cc(C)n2)nnc1SCC(N)=O	x	59	-1	i	0.96	x	x
CC(=O)CC(=O)NC(=NC1CCCCC1)Nc1nc(C)cc(C)n1	-2.0	93	0	i	1.1	-6	83
O=C(CNC(=O)c1cccc(F)c1)OCC(=O)N1CCCc2ccccc21	-0.2	111	-8	i	0.91	7	206
Cc1ccc(/C=N/NC(=O)C2(O)c3ccccc3-c3ccccc32)o1	-1.1	96	-9	i	0.88	x	x
Cc1ccc(C)c2[nH]c(=O)c(CN(Cc3cccs3)C(=S)NCc3ccco3)cc12	-0.1	98	3	i	0.56	-48	89
Cc1c(N=C2N=C(NC(=O)NC(C)(C)C)c3ccccc32)c(=O)n(-c2ccccc2)n1C	x	104	3	i	0.94	x	x
O=C(N/N=C/c1ccc(Br)cc1)c1ccc(F)cc1	-0.3	105	-9	i	0.85	x	x
O=C(Nc1ccc(NC(=O)c2cccs2)cc1)c1ccc2c(c1)OCO2	x	104	x	i	0.91	x	x
CCc1ccc(-c2csc(NC(=O)C3CCCO3)c2C(=O)OC(C)C)cc1 (stereo not drawn)	-0.3	120	-7	i	1	x	x
CC1CC(C)CN(c2ncc3c(n2)CC(c2ccccc2)CC3=O)C1 (stereo not drawn)	-0.8	105	-15	i	0.97	0	122
Cc1noc(C)c1COc1ccc(C(=O)NCc2ccccn2)cc1	-0.5	96	10	i	0.81	-55	187
CCN(CC)CCN1C(=O)C(=O)/C(=C(/O)c2ccc(C)cc2)C1c1ccncc1 (stereo not drawn)	-0.2	110	-4	i	0.93	37	95
Nc1c(-c2nn[nH]n2)cnn1-c1cc(Cl)cc(Cl)c1	x	103	x	i	0.92	x	x
CCOc1ccc(N(Cc2nnc3n2CCCCC3)C(=O)Nc2cccc(C)c2)cc1	x	96	-10	i	0.97	x	x

(more compounds)
molecule	GALR2 ag	RGS16-Gao HTS	PKD1 inh	HSV replic up	HSV replic up primary fold	Insulin prom inh	Insulin prom inh cell count
Cc1cc([N+](=O)[O-])ccc1NC(=O)CN1C2CCC1CC(NC(=O)NC13CC4CC(CC(C4)C1)C3)C2 (stereo not drawn)	x	90	3	i	0.95	x	x
O=C(O)CC(C(=O)OCCOc1ccccc1)N1CCOCC1 (stereo not drawn)	-2.9	104	1	x	x	62	100
COC(=O)c1ccc2ncccc2c1	-3.5	188	-1	i	0.99	-257	48
CCOc1ccccc1C(=O)NCc1ccc2c(c1)OCO2	-2.1	102	0	i	0.74	-41	142
CCCCCCCCCn1ccc(=N)cc1	x	101	x	i	0.69	x	x
NS(=O)(=O)c1ccc(Nc2nc(-c3cccc([N+](=O)[O-])c3)cs2)cc1	x	102	1	i	0.86	40	105
Cc1ccc(C(=O)NC(=S)N2CCN(C)CC2)cc1	-3.4	105	-2	x	x	-14	57
O=C(Oc1ccc(/C=N/n2cnnc2)cc1)c1cccc([N+](=O)[O-])c1	x	104	0	i	1.2	x	x
COc1ccc(NC(C)=O)cc1NC(=O)CSc1nnc(-c2ccccn2)n1C	-0.8	85	-13	i	0.9	-17	91
CCC1(O)CC(C(=O)OC)=NN1C(=O)c1ccccc1 (stereo not drawn)	-2.7	107	-13	i	1.1	16	131
Nc1nc2ccccc2n1C(=O)c1cccs1	x	78	-4	i	0.99	0	110
COc1ccc(CNC(=O)CN=C2NC(=O)C(c3ccccc3)(c3ccccc3)N2)cc1	-1.4	103	-8	i	0.97	x	x
CC(=O)OC(C)C(=O)NS(=O)(=O)c1ccc(C)cc1 (stereo not drawn)	x	98	5	i	0.93	-45	154
COc1cccc(N2CCN(C(=O)NC3CCCCC3)CC2)c1	-1.1	100	-4	i	0.83	-38	111
Cc1cc(C)c(C#N)c(SCS(=O)c2ccc(C(C)(C)C)cc2)n1 (stereo not drawn)	1.1	106	-2	i	1	x	x
O=C(O)CC/C(=N\NC(=O)CNC(=O)/C=C/c1ccccc1)c1ccccc1	x	99	x	i	0.96	x	x
COc1ccc(N(CC(=O)N/N=C/c2cccs2)S(=O)(=O)c2ccc(OC)c(OC)c2)cc1	-1.8	103	1	i	0.93	-20	62
CCCCN(CC(=O)NCCOC)C(=O)Cn1nnc2ccccc21	x	101	4	i	1.1	x	x
S=c1[nH]nc(Cc2ccccc2)n1-c1ccccc1	0.4	99	10	i	0.94	27	139
CC(C)Cn1c(=O)c2ccccc2c2ccccc2c1=O	-1.4	111	-3	i	0.98	-8	121

Look-ups from the entries so far.
For HSV replic up primary fold, `O=C(Oc1ccc(/C=N/n2cnnc2)cc1)c1cccc([N+](=O)[O-])c1` shows 1.2
For HSV replic up primary fold, `COc1ccc(N(CC(=O)N/N=C/c2cccs2)S(=O)(=O)c2ccc(OC)c(OC)c2)cc1` shows 0.93
For PKD1 inh, `CCCCN(CC(=O)NCCOC)C(=O)Cn1nnc2ccccc21` shows 4
For HSV replic up primary fold, `CCCCCCCCCn1ccc(=N)cc1` shows 0.69
For PKD1 inh, `Cc1cc([N+](=O)[O-])ccc1NC(=O)CN1C2CCC1CC(NC(=O)NC13CC4CC(CC(C4)C1)C3)C2` (stereo not drawn) shows 3
For PKD1 inh, `COc1cccc(N2CCN(C(=O)NC3CCCCC3)CC2)c1` shows -4

The list goes on:
molecule	GALR2 ag	RGS16-Gao HTS	PKD1 inh	HSV replic up	HSV replic up primary fold	Insulin prom inh	Insulin prom inh cell count
CCCCCOc1ccc(C(=O)NCC(=O)NCC(=O)OCC)cc1	-3.0	99	-6	i	1	x	x
CC(=O)N1CCN(c2ccc(C(N)=O)cc2[N+](=O)[O-])CC1	x	110	-5	i	0.93	18	202
CCc1cc2c(=O)nc3n(c2s1)Cc1ccccc1/C3=C(/O)c1cccc([N+](=O)[O-])c1	0.3	94	6	i	1.1	7	113
Cn1c(=O)c2c(nc(SCC(=O)NCc3ccc4c(c3)OCO4)n2Cc2ccc(Cl)cc2)n(C)c1=O	-2.4	100	-3	i	0.84	5	78
CC1(C)OC(=O)C(=CNc2ccccc2)C(=O)O1	-1.6	101	-5	i	0.79	-18	185
COc1ccc(N2C(=O)C3C4C=CC(C4)C3C2=O)c(OC)c1 (stereo not drawn)	-0.1	93	-3	i	1	10	94
CCn1c(N)c(C(=O)NC)sc1=S	0.3	44	3	i	0.97	-33	115
Cc1cc(C(=O)COC(=O)c2ccco2)c(C)n1Cc1ccco1	x	102	3	i	1.1	-12	77
COc1cc(NC(=O)CSc2ccccc2)c(C(=O)O)cc1OC	-1.3	98	-8	i	0.98	x	x
CCCOc1ccc(CN(CCC#N)C(=S)NC(=O)c2ccccc2)cc1	-0.5	95	-4	i	0.96	-4	114
COc1cc2c(cc1OC)C1=NC(=O)CN1C(SCc1ccc(C)cc1)=N2	-0.3	112	-4	i	0.99	0	106
O=C1COc2ccc(C(=O)NCc3ccc4c(c3)OCO4)cc2N1	-1.4	98	-3	i	1.1	-36	87
Cc1cc(C)nc(NC(=O)c2ccc3c(c2)OCO3)c1	x	99	8	i	0.88	x	x
NS(=O)(=O)c1cc(C(=O)NCCOc2ccccc2)c(Cl)cc1Cl	-1.8	103	2	i	0.7	-60	100
CC(C)CCn1nnnc1C(c1ccccc1F)N1CCC(C(N)=O)CC1 (stereo not drawn)	-2.1	75	-3	i	0.86	x	x
CN(C)C(/C=C/Nc1ccc(Br)cc1)=C(C#N)C#N	x	107	5	i	1	x	x
O=C1CCCN1c1ccc(S(=O)(=O)Oc2cccc(Cl)c2)cc1[N+](=O)[O-]	-1.2	103	-1	i	0.98	-50	94
CCN1CC(CN(C)Cc2nc(-c3cccs3)no2)CC1=O (stereo not drawn)	x	101	5	i	0.98	50	177
CCCCn1nc2cc(C(=O)NCc3ccccc3)ccc2c1OCC	-2.1	100	7	i	1.1	x	x
O=C(OCC(=O)N(C1CCCCC1)C1CCCCC1)c1ccco1	-2.2	101	-3	i	0.89	12	96

Continued:
molecule	GALR2 ag	RGS16-Gao HTS	PKD1 inh	HSV replic up	HSV replic up primary fold	Insulin prom inh	Insulin prom inh cell count
CCOC(=O)c1nnn2c1nc(N1CCCCC1)c1ccccc12	x	110	x	i	1.1	x	x
CCOC(=O)c1cc(-c2ccccc2)sc1NC(=O)C(C)OC(=O)c1ccncc1 (stereo not drawn)	0.1	98	4	i	0.91	0	89
Cc1ccc(-c2csc3nnc(SCC(=O)NCc4ccc5c(c4)OCO5)n23)cc1	-1.3	108	-7	i	1.2	-16	182
COc1cc(N2CCCC2)c(OC)cc1C=O	x	104	0	i	0.96	x	x
CC(=O)c1nnn(-c2ccc([N+](=O)[O-])cc2)c1C	x	107	-1	i	0.94	-50	89
CCOC(=O)CCS(=O)(=O)c1nc(-c2ccccc2)cc(C(F)(F)F)n1	3.4	94	-19	i	0.9	56	45
CCOC(=O)C1=C(c2ccccc2)N=C2SCC(=O)N2C1c1cccc(OC)c1 (stereo not drawn)	-1.4	101	-8	i	0.99	50	92
O=C(NNc1ccc(C(F)(F)F)cc1[N+](=O)[O-])c1ccc(NS(=O)(=O)c2ccc(F)cc2)cc1	-0.9	94	-1	i	0.93	41	159
COc1cccc(/C=N/NC(=O)CNC(=O)CCc2ccccc2)c1O	x	94	x	i	1	x	x
COc1cc(NC(=O)c2cccs2)c(C(=O)OCC(=O)NCc2ccccc2)cc1OC	-0.1	39	-4	u	x	-27	76
Cc1ccc(N2C(=O)[C@@H]3C(c4cccnc4)=NO[C@@H]3C2=O)cc1	x	103	x	i	1.1	x	x
Cc1nc(Nc2ccc(S(N)(=O)=O)cc2)sc1C(=O)Nc1ccccc1	x	103	-11	i	0.91	x	x
CSc1ccc(C(=S)N2CCN(C(c3ccccc3)c3ccccc3)CC2)cc1	-0.2	76	-5	i	0.86	-50	92
CC(=O)/C=C(\C)Nc1ccc(-c2cnc(-c3ccccc3)o2)cc1	-1.4	98	-5	i	0.98	x	x
CCCc1cc(=O)n(-c2nc3ccccc3s2)[nH]1	x	89	x	i	0.93	x	x
O=C(COC(=O)Cc1ccsc1)Nc1ccc(S(=O)(=O)N2CCOCC2)cc1	-0.8	109	10	i	1	x	x
N#Cc1cn(CCOc2ccc(F)cc2)c2ccccc12	-2.7	106	-3	i	0.87	14	116
CCOC(=O)C1CCN(C(=O)c2ccc(Oc3cc(Cl)cc(Cl)c3)o2)CC1	x	103	x	i	0.81	x	x
CCOc1ccccc1N1CCN(C2=C(NS(=O)(=O)c3cccs3)C(=O)c3ccccc3C2=O)CC1	-4.3	95	-1	i	0.92	16	95
CC1(O)N(CCC(=O)Nc2cccc(F)c2)C(=O)OC12CCCCC2 (stereo not drawn)	x	81	4	i	0.99	x	x

Other records
molecule	GALR2 ag	RGS16-Gao HTS	PKD1 inh	HSV replic up	HSV replic up primary fold	Insulin prom inh	Insulin prom inh cell count
O=C(O)CCCN=CC1=C(O)C(C(=O)c2ccccc2)CCC1=O (stereo not drawn)	-2.0	99	-11	i	1.1	16	121
CC(OCC(O)CN(C)CCOc1ccccc1)c1ccc(Cl)cc1 (stereo not drawn)	-0.5	105	-8	i	0.9	-21	60
CCOc1ccc(NC(=O)CNC(=O)c2ccc(OC)cc2)cc1	x	100	9	i	0.96	26	111
C=C(C)CN(CC)C(=O)COc1ccc(S(=O)(=O)Nc2ccc(OC)cc2)cc1	-1.1	91	-3	i	0.73	-24	87
CCn1c(CNC(C)=O)nnc1SCC(=O)c1ccc(Br)cc1	-2.0	97	-2	i	0.87	53	109

Source: PubChem BioAssay (several laboratories)
